# Compound activity as filed in PubChem BioAssay.
# A647 autofl – A647 region autofluorescence; Compound fluorescence, A647 channel (570/671 nm), Tris buffer; max dye-equivalent concentration, M; 59,000 tested, under 10 active; AID 592; active means above 1 µM dye equivalent; inconclusive means 0.1 to 1 µM; inactive means 0.1 µM or less;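 note: values scaled relative to a standard on each plate; highest value over a series up to 38 µM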
#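 Tris 100 mM pH 8.0; cpd + A647 stds pin-transferred; 15 min RT; CCD imager, ex 570/em 671. Output = A647-equivalent conc. per cpd conc.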
# A488 fluor – compound autofluorescence in A488 spectral region. max dye equivalency, M. compound autofluorescence, A488 spectral region, dye equivalency; active compounds read high. 0.1% of 59,000 active; active = above 10 nM dye equivalent; inconclusive = 1 to 10 nM; inactive = 1 nM or less; about half of its hits are not listed in these tables;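 note: highest value over a series up to 38 µM; compound alone in buffer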
#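 Read-out: relative fluorescence at 480/540 nm, expressed as Alexa 488 dye-equivalent concentration from a six-point A488 standard included per plate. Conditions: 100 mM Tris, pH 8.0; 15 min incubation, room temperature.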
# Resorufin fluor – resorufin region autofluorescence. Compound fluorescence, resorufin region 547/598 nm, buffer; active compounds read high. max dye-equivalent concentration, M. 0.04% of 59,000 active. AID 588; active = above 10 nM dye equivalent; inconclusive = 1 to 10 nM; inactive = 1 nM or less; a few of its hits are not listed in these tables; note: highest value over a series up to 38 µM
#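 Intrinsic fluorescence profiled in the resorufin window (ex 547 nm, em 598 nm) after 15 min at room temperature in pH 8.0 Tris buffer (100 mM); responses normalized against a six-point resorufin standard series as dye-equivalent concentration.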
# TSHR agonist – agonists of human thyroid stimulating hormone receptor | 0.48% of 73,000 active | Potency, µM (titrated, usually from 57.1 µM), without a hit: at the highest dose activation, actives largely listed as activators | HEK293-CNG-TSHR cells (CNG channel as cAMP sensor), membrane potential dye, cAMP | AID 926; active = well fitted activation curve of enough size with the parental cells flat; inconclusive = any curve in the parental cells; inactive = parental cells flat and receptor cells flat or falling; note: potency is the fitted concentration of half-maximal effect; % of control where 0% means no effect; weak receptor curves with flat parental cells got no call and are not listed
# Target sequence (P16473 whole entry, looked up): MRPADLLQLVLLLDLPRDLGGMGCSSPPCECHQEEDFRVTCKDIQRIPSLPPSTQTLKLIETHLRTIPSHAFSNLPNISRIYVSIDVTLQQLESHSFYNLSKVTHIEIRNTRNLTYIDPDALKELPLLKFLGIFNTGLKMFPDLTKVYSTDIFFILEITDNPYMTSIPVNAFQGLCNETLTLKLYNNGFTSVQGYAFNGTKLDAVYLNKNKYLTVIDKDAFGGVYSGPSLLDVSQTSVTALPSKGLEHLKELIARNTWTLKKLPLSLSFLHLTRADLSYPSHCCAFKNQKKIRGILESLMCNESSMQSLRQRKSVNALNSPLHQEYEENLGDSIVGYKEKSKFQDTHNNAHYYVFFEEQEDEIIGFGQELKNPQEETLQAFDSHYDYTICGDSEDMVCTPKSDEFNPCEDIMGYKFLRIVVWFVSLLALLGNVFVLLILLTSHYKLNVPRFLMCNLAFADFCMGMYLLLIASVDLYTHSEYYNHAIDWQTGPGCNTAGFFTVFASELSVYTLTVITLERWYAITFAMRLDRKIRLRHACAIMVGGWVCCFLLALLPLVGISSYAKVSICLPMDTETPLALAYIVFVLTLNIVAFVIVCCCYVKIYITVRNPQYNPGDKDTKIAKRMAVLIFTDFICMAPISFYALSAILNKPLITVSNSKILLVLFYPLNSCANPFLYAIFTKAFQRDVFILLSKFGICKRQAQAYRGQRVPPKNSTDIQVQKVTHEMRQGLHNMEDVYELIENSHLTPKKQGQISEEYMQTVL
#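 HEK 293 cells stably expressing TSHR and a modified CNG channel, with CNG-only parental cells as counterscreen, were preloaded 60 min at room temperature with membrane potential dye containing 100 uM RO 20-1724. Compound exposure was 30 min, and depolarization was read as fluorescence at 590 nm.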
# AID923 – qHTS Assay for Allosteric/Competitive Inhibitors of Caspase-1: Spectroscopic Profiling in AFC Spectral Region; 1.1% of 75,000 active; compound fluorescence, AFC spectral region (405/520 nm); almost no hit is shown here; Potency, µM (doses to about 57.5 µM), without a hit: at the top dose fluorescence increase, actives largely listed as activators; active = well fitted activation curve with a large enough effect; inconclusive = small, poorly fitted or top-dose-only effect;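 note: potency is the fitted concentration of half-maximal effect; 0% is about no effect; scaled to a free AFC standard on each plate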
#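 Baseline compound fluorescence (AFC region, 405 nm ex/520 nm em) taken from the intercept of kinetic reads with 50 nM caspase-1 and 5 uM Ac-WEHD-AFC; normalized to an on-plate AFC standard curve; compounds titrated up to 57 uM.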
# * = called active by the depositor; i = inactive; ? = inconclusive; nt = not tested or not shown; & = joins results of further samples; [ ] = another dose, or the depositor's remark. Not all compounds are listed (hit frequency here may not be typical).
SMILES,A647 autofl,A488 fluor,Resorufin fluor,TSHR agonist,AID923
CC(=O)c1c(O)c(C)c(O)c2c1OC1=CC(=O)[C@H](C(C)=O)C(=O)[C@]12C,2.15e-08,i,i,2.5%,nt
Cc1ccc(NC(=O)C2CCCN2S(=O)(=O)c2ccc3c(c2)CCC(=O)N3)cc1Cl (centres undefined),nt,nt,nt,-7.3%,-0.5%
CC1(C)CC(=O)C=C(NCCN2CCN(C(=O)Nc3ccc(Cl)c(Cl)c3)CC2)C1,nt,nt,nt,18.2%,3.0%
COc1ccccc1NC(=O)COC(=O)c1ccc(S(=O)(=O)NCc2ccco2)cc1,1e-09,i,i,4.6%,0.3%
CCOc1ccc(OCC)c(NC(=O)CN2CCN(c3ccc(C)cc3C)CC2)c1,2.37e-08,i,i,0.2%,-1.4%
NC(=O)NC(Cc1ccccc1)C(=O)O (centres undefined),1e-09,i,i,9.7%,-0.4%
Cc1ccc(C)c(N2CCN(C(c3ccncc3)c3nnnn3Cc3ccccc3)CC2)c1 (centres undefined),1e-09,i,i,10.0%,0.6%
C=CCNC(=O)CN(c1cccc(Br)c1)S(C)(=O)=O,nt,nt,nt,-8.8%[11.4 µM],-1.2%
O=C(NC1CC2CCC(C1)N2C(=O)NCc1ccccc1)C1CC1 (centres undefined),1.2e-09,i,i,6.3%,0.1%
CNC(=O)c1cc2cc(OC)ccc2n1CCN(C)C,nt,nt,nt,16.4%,-0.5%
Cc1c(C(=O)N2CC(C)OC(C)C2)oc2ccccc12 (centres undefined),nt,nt,nt,2.0%,3.9%
Cc1cc(C)n2cc(CSc3nnnn3C)nc2n1,1e-09,i,i,-1.6%,0.2%
CCN(CC)CCCCC1CCN(CC(=O)N2c3ccccc3C(=O)Nc3cccnc32)CC1,nt,nt,nt,-2.0%,-2.9%
COc1cc(OC)cc(C(=O)Nc2cccc(C(C)=O)c2)c1,nt,nt,nt,11.3%,0.7%
COc1ccc(NC(=O)CSc2nc3c(c(=O)n2-c2ccccc2)SCC3)c(OC)c1,2.9e-09,i,i,18.3%,3.1%
COc1ccc(S(=O)(=O)NCc2cn3c(C)csc3n2)cc1F,nt,nt,nt,1.9%,-1.2%
Cc1cccc(C2CC(c3ccc(Cl)cc3)Nc3nc(N)nn32)c1 (centres undefined),nt,nt,nt,6.6%,-2.9%
CCOCCCNC(=O)c1ccc2c(c1)ncn2C1CCCC1,1e-09,i,i,-1.9%,1.6%
COc1ccccc1-c1nnc(Nc2nc3c(OC)cccc3s2)o1,2.3e-09,i,i,9.3%,-0.4%
O=C(NCc1cccs1)c1ccccc1C(=O)NCc1cccs1,1e-09,i,i,4.1%,2.8%

# Compound profiles (already shown). Order of values: A647 autofl, A488 fluor, Resorufin fluor, TSHR agonist, AID923
# COc1ccccc1-c1nnc(Nc2nc3c(OC)cccc3s2)o1 in the list: 2.3e-09, i, i, 9.3%, -0.4%
# NC(=O)NC(Cc1ccccc1)C(=O)O (centres undefined) in the list: 1e-09, i, i, 9.7%, -0.4%

# Next section:
SMILES,A647 autofl,A488 fluor,Resorufin fluor,TSHR agonist,AID923
O=C(Cn1cnc2c(nnn2Cc2ccc(Cl)cc2)c1=O)NC1CCCC1,1e-09,i,i,3.2%,1.9%
O=C(NCc1cccs1)C1CCN(S(=O)(=O)c2cccc3cccnc23)CC1,nt,nt,nt,3.9%,-0.6%
Cn1c(-c2ccc(Br)o2)nc2ccccc21,3.3e-09,i,i,?,-0.7%
Cc1cccc(C)c1-n1nnnc1SCSc1nnnn1-c1c(C)cccc1C,3.29e-08,i,i,?,-1.6%
Cc1csc(=NC(=O)c2ccccc2)n1Cc1ccco1,3.3e-09,i,i,?,-0.1%
CCOC(=O)N1CCN(c2c(N3CCOCC3)c(=O)c2=O)CC1,nt,nt,nt,-8.6%,1.5%
O=C(Nc1cccc(F)c1)C1C2C=CC3(CN(CCCN4CCOCC4)C(=O)C13)O2 (centres undefined),nt,nt,nt,6.2%,-0.3%
COC(=O)c1sccc1NC(=O)c1cc2c(s1)CCCC2,4.3e-09,i,i,?,1.2%
Cc1ccc(S(=O)(=O)NC2=NCN(Cc3ccccc3)CN2)cc1,1.57e-08,i,i,1.6%,0.1%
O=C(O)CN(Cc1ccco1)S(=O)(=O)c1ccccc1,nt,nt,nt,-7.1%,-0.2%
O=c1cnnc(SCCc2ccccc2)[nH]1,2.91e-08,i,i,?,16.9%
Cc1nc(Nc2ncc3c(n2)CCCC3=O)nc2ccccc12,1e-09,i,i,nt,nt
Cc1[nH]c2ccccc2c1C(=O)CSc1nc2cc(S(=O)(=O)N3CCCCC3)ccc2o1,nt,nt,nt,0.1%,0.1%
CCn1c(SCC(=O)Nc2cc(C)ccc2C)nnc1-c1cnccn1,9.7e-09,i,i,0.6%,-1.5%
CCN(CC)S(=O)(=O)c1cc(Br)c(C)cc1OC,1.12e-08,i,i,?,-2.2%
CCOc1ccc2nc(SCc3ccc(C(=O)OC)o3)[nH]c2c1,5.1e-09,i,i,1.0%,0.3%
Fc1cnc(N2CCOCC2)nc1NCc1ccccc1,2.14e-08,i,i,nt,nt
COc1ccccc1NS(=O)(=O)c1ccc(C)c(C(=O)NCC2CCCO2)c1 (centres undefined),1e-09,i,i,-0.2%,1.0%
C=CCN1C(=O)C(O)(CC(=O)c2ccc(N)cc2)c2ccccc21 (centres undefined),nt,nt,nt,?,-0.4%
CC(=O)N1CCC(N(CCN2CCOCC2)C(=O)Nc2ccc(Cl)c(Cl)c2)CC1,nt,nt,nt,7.0%,0.2%

# Looked up by compound from above (3):
SMILES,A647 autofl,A488 fluor,Resorufin fluor,TSHR agonist,AID923
CCOCCCNC(=O)c1ccc2c(c1)ncn2C1CCCC1,1e-09,i,i,-1.9%,1.6%
O=C(NC1CC2CCC(C1)N2C(=O)NCc1ccccc1)C1CC1 (centres undefined),1.2e-09,i,i,6.3%,0.1%
COc1ccc(S(=O)(=O)NCc2cn3c(C)csc3n2)cc1F,nt,nt,nt,1.9%,-1.2%

# Next section
SMILES,A647 autofl,A488 fluor,Resorufin fluor,TSHR agonist,AID923
COC(=O)C1=C(C)N(Cc2ccccc2)C2=C(C(C)=O)C(c3ccccc3)[C@@](O)(C(=O)OC)C(=O)N2C1c1ccccc1 (some centres undefined),nt,nt,nt,-2.6%&9.8%[11.4 µM],1.7%&2.3%[11.5 µM]
COC(=O)c1ccc(NC(=O)c2ccc(N(C)S(C)(=O)=O)cc2)cc1,1.53e-08,i,i,nt,-1.3%
Cc1cc(OCC(=O)N2CCCC2)cc(C)c1Cl,5.7e-09,i,i,nt,1.3%
Cc1ccc(/C=N/c2sc3c(c2C#N)CCCCC3)o1,2.88e-08,i,i,-1.9%,6.9%
CCN(CC)CCN1C(=O)C2C3c4ccccc4C(c4ccccc43)C2C1=O (centres undefined),nt,nt,nt,26.0%[11.4 µM],-1.3%
CCOc1ccc(-c2nnc(-c3ccco3)o2)cc1,nt,nt,nt,?,1.3%
CCc1ccc(OCc2nnc(SCCN3CCOCC3)n2CC)cc1,7.1e-09,i,i,28.0%,-3.1%
CC(NC(=O)CCNS(=O)(=O)c1ccc2c(c1)c(=O)n(C)c(=O)n2C)c1ccccc1 (centres undefined),1e-09,i,i,-3.2%,0.6%
Cc1ccc(C(c2nnnn2CS(=O)(=O)c2ccc(C)cc2)N2CCC(C(N)=O)CC2)cc1 (centres undefined),1e-09,i,i,-3.6%,0.4%
CN(Cc1cc2ccccc2[nH]c1=O)C(=O)C1CCCCC1,1.17e-08,i,i,5.2%,0.7%
Cn1c(=O)c(=O)n(C)c2cc(S(=O)(=O)N3CCCCCC3)ccc21,1e-09,i,i,1.4%,-1.1%
OCCN1CCN(CC(O)COc2ccc3ccccc3c2)CC1 (centres undefined),1.2e-09,i,i,19.7%,-0.2%
CNC(=O)Cn1c(=O)n(C)c2ccccc21,8.18e-08,i,i,6.1%,-0.6%
COc1ccc(OCCOC(=O)c2cccc(-n3cnnn3)c2)cc1,5.4e-09,i,i,8.8%,-2.1%
CC(=O)N1CCN(S(=O)(=O)c2ccc(S(=O)(=O)NC3CC3)cc2)CC1,1.24e-08,i,i,-0.3%,0.1%
CC(C)(C)C(=O)/C=C(\N)c1ccncc1,nt,nt,nt,1.1%,0.4%
O=C(CSc1nnc(-c2cccnc2)o1)c1cc2ccccc2oc1=O,7e-09,i,i,-7.2%,0.3%
O=C(CC1C(=O)NCCN1C(=O)Nc1ccccc1)Nc1ccc2c(c1)OCCO2 (centres undefined),2.65e-08,i,i,-7.9%,0.2%
O=C(O)CCOc1ccc2c(c1)OCCO2,4.9e-09,i,i,?,-0.4%
Cn1c(Sc2nc3ccccc3n2C)nc2ccccc21,1e-09,i,i,1.6%,1.9%
O=C(Nc1ccccc1F)C1C2C=CC3(O2)C1C(=O)N(c1cccnc1)C3C(=O)NC1CCCCC1 (centres undefined),1e-09,i,i,-0.7%,0.4%
COc1cc(NC(=O)C2CCCN(S(=O)(=O)c3cnc[nH]3)C2)cc(OC)c1 (centres undefined),nt,nt,nt,-1.1%,-0.2%
O=C(O)C1CCCCC1C(=O)Nc1ccc2c(c1)CCC2 (centres undefined),1e-09,i,i,4.4%,-1.9%
CCCCCCCCCCCCCCCC[N+](C)(C)CCN(Cc1ccc(OC)cc1)c1ncccn1,3.7e-09,i,i,-38.3%[inhibitor][25.6 µM],-0.2%[25.7 µM]
O=C(O)C1(C(=O)O)CCN(S(=O)(=O)c2ccccc2)CC1,1.2e-09,i,i,6.0%[11.4 µM],0.3%[11.5 µM]
Cc1occc1-c1nnc(SCc2cc(=O)n3cc(Br)ccc3n2)n1C,2.93e-08,i,i,1.2%,0.5%
Cc1[nH]nc(-c2ccc(O)c(C)c2O)c1-c1cnn(-c2ccccc2)c1,1e-09,i,i,?,-1.4%
CS(=O)(=O)Nc1ccc(C(=O)NCc2cccnc2)cc1,1e-09,i,i,0.8%,-1.4%
COc1cccc(C2/C(=C(/O)c3ccccc3)C(=O)C(=O)N2CCCC(=O)O)c1 (centres undefined),nt,nt,nt,3.2%,-1.5%
CN(C)[C@@H]1C(=O)C(C(N)=O)=C(O)[C@@]2(O)C(=O)C3=C(O)c4c(O)ccc(Cl)c4[C@@H](O)[C@H]3C[C@@H]12,3.67e-08,i,i,nt,nt
COc1ccc2c(CC#N)c[nH]c2c1,nt,nt,nt,-9.1%,-1.5%
COC(=O)c1ccc(C(NC(=O)c2ccco2)[C@]2(C)C[C@H]2C2CCCCC2)cc1 (some centres undefined),nt,nt,nt,?,-2.3%
Cc1nccn1-c1c2c(c(C#N)c3nc4ccccc4n13)CCCC2,2.06e-08,i,i,3.6%,8.8%
CC(C)CCNC(=O)C1CCN(S(=O)(=O)c2ccc3c(c2)CCC(=O)N3)CC1,nt,nt,nt,?,1.2%
CCOc1cc(S(=O)(=O)N2CCC(Cc3ccccc3)CC2)c(OCC)cc1-n1cnnn1,4.01e-08,i,i,7.7%,2.3%
CC(C)NC(=O)Cn1c(SCC(=O)N2c3ccccc3CC2C)nc2ccccc21 (centres undefined),3.3e-09,i,i,15.3%,4.5%
O=C1CN2C(=Nc3ccc(Br)cc3C2c2ccccc2)CCN1 (centres undefined),nt,nt,nt,-1.7%,1.4%
COc1ccc(CN(CC(=O)NCc2ccco2)C(=O)CCC(=O)Nc2ccccn2)cc1,1e-09,i,i,5.1%,0.5%
CCN1C(=O)NC(c2cc(Br)ccc2OC)C(C(=O)OC)=C1C (centres undefined),1e-09,i,i,nt,-0.8%
Fc1ccccc1COc1ccc(/C=N/n2cnnc2)cc1,nt,nt,nt,?,3.1%
COCCOC(=O)C1=C(C)NC(=O)NC1c1c(F)cccc1Cl (centres undefined),nt,nt,nt,5.9%[11.4 µM],0.9%
CCN(CC)CCNC(=O)c1cc2c(-c3ccc(Cl)cc3)nn(C)c2s1,nt,nt,nt,16.8%,-3.5%
CCC(OC(=O)c1cccs1)C(=O)NCc1ccco1 (centres undefined),1e-09,i,i,8.3%,1.8%
Cc1nnc2sc(-c3cccc4ccccc34)nn12,7.9e-09,i,i,0.3%,1.6%
